Screening data (PubChem)
MT1-MMP act inh = blocks activation of human MT1-MMP; actives 0.061% (n = 360,000); P50281; HT1080 RFP-PRO-GFP cells, GFP/RFP ratio fluorescence, overnight; percent of plate control window, DMSO zero; GFP/RFP ratio change, % at 20 µM;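 active = GFP/RFP ratio change of at least 30% with cell ATP level not reduced by more than half and red fluorescence within 50% of control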; note: strong numbers were not always called active
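Assay system – RFP-PRO-GFP reporter HT1080 cells · Compound dosing – single dose of 20 µM compound, 1% DMSO final · Incubation – overnight compound exposure at 37 °C · Measure – GFP/RFP fluorescence ratio · Benchmarks – DMSO wells and RFP-L50D-GFP cells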
PABP polyA inh = PABP-poly(A) binding inhibition. actives 1% (n = 290,000). PABP-poly(A) RNA binding, fluorescence polarization. AID 2014. inhibition, % at 35 µM. P11940;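 active = 50% or more with normal probe brightness, or confirmed in later tests; about a fifth of its hits are not listed in these tables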;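 note: calls also rest on retests at 20 µM and on dose response follow-up; controls were probe without protein and protein plus probe with vehicle; some compounds called inactive have numbers as strong as hits; many hits fall short of the cut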
Rce1 inh = blocks yeast Ras-converting enzyme. Q03530. yeast membranes, quenched prenylated peptide cleavage fluorescence. calls only. actives 0.27% (n = 290,000);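 active = fall in fluorescence gain of 50% or more versus controls, with final raw signal at or below 3038400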;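 note: plate controls were neutral control wells for no effect and wells lacking membranes for full effect; tested at 10 µM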
Target sequence (Q03530 whole entry, looked up): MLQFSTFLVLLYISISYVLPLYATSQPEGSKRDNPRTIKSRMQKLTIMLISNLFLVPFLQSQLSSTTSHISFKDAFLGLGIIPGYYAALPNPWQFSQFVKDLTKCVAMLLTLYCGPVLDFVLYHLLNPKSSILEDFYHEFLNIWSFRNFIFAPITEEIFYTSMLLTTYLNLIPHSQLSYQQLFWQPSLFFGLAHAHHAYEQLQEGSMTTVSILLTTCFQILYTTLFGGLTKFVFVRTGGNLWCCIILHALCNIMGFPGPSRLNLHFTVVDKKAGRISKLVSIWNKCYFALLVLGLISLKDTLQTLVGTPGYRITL
CSC inhib = cancer stem cell inhibition. cancer stem cell-like cells viability, luminescence. actives 1.1% (n = 300,000). inhibition, % at 7.5 µM;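 active = mean at 75% or more and at least half the replicates too; tested in HMLE shEcad cells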;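 note: 0% = median of negative and 100% = median of positive control wells; the first replicate is given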
HIV Env fusion = blocks HIV Env-driven cell-cell fusion. inhibition, % at 12.3 µM. HeLa-JRFL Env/CEM21 cell fusion, luciferase. actives 1.1% (n = 360,000). AID 651610;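 active = mean replicate inhibition score of at least 50 and every replicate individually at or above 50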;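 note: 0% = plate neutral controls and 100% = maraviroc near 300 nM; one replicate is shown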
Yeast UUG start = yeast start codon fidelity modulation. S. cerevisiae UUG-firefly luciferase reporter, luminescence/redox ratio. activity score, % at 18.7 µM. actives 0.13% (n = 350,000);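 active = replicate mean at a twofold rise or more, about +100% in these data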;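 note: firefly luciferase made from a UUG start codon reports start codon fidelity; reporter light over untreated wells divided by growth signal over untreated wells; some hits fall short of that in this replicate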
eIF4H inh = inhibitors of RNA binding by human eIF4H | eIF4H fluorescence polarization binding assay | actives 0.94% (n = 290,000) | inhibition, % at 35 µM | Q15056 | AID 2012;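 active = 50% or more with normal probe brightness, or confirmed in later tests; about a fifth of its hits are not listed in these tables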;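 note: calls also rest on retests at 20 µM and on dose response follow-up; 0% = protein and probe with vehicle and 100% = probe without protein; strong numbers were not always called active; many hits fall short of the cut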
eIF4H inh retest = further read-out of eIF4H inh, marked with its call; inhibition, %; compound at 20 µM; confirmation average;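 mean of two retest wells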
PABP polyA inh retest = also measured in PABP polyA inh; calls as there; inhibition, %; compound at 20 µM; confirmation repeats;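 mean of two retest wells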
MT1-MMP act inh RFP = further read-out of MT1-MMP act inh, marked with its call; RFP signal change, %; measured here: RFP expression control read;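 0 = vehicle wells; hits needed this value within 50% of zero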
An asterisk follows results filed as active; i = inactive; nt = no result given.

SMILES	MT1-MMP act inh	MT1-MMP act inh RFP	PABP polyA inh	Rce1 inh	CSC inhib	HIV Env fusion	Yeast UUG start	eIF4H inh	others
COc1ccc(OCc2nnc(SCC(=O)Nc3oc(C)c4c(C)n[nH]c(=O)c34)n2C)cc1	5	4	nt	nt	nt	-43	-7	nt
Cc1ccccc1OC(=O)c1cccnc1	-2	-4	-4	i	nt	-3	2	7
CCOc1ccccc1C(O)C1=CC(=O)c2ccccc2C1=O (stereo unspecified)	6	6	nt	nt	nt	27	-17	nt
O=C(Cn1ccc2ccccc2c1=O)NCC(=O)Nc1ccc(F)cc1F	2	3	13	nt	-3	-5	-15	6
Cc1sc(NC(=O)C2CSC3(C)CCC(=O)N23)nc1-c1ccc(F)cc1 (stereo unspecified)	-8	-4	3	i	4	-161	-12	-8
Cc1ccc(CNC(=O)c2cc3c(-c4ccc(Cl)cc4)nn(C)c3s2)o1	-6	-13	-4	i	38	-2	-18	-4
Cc1cc(C)c(S(C)(=O)=O)c(Oc2ccc(F)cc2)n1	0	5	-6	i	-10	nt	nt	-11
C=CCC(C)(NCc1ccccc1)c1ccco1 (stereo unspecified)	-4	1	0	i	-14	-43	nt	1
O=C1CCCc2nc(NCc3ccco3)ncc21	3	5	-2	i	-2	nt	-15	-4
CCOc1ncccc1C(=O)Nc1ccc(S(=O)(=O)N2CCCC2)cc1	2	1	-1	i	-11	-1	nt	-12
O=C(CCC(=O)Nc1ccc(F)cc1)N/N=C/c1ccc(O)cc1	2	2	10	i	1	4	-9	-4
O=C1NCCN1Cc1ccc(Cl)cc1	2	6	6	i	-21	-27	-17	-4
CC(C)[C@@H](C(=O)OCC(=O)Nc1ccc2c(c1)OCO2)N1C(=O)c2ccccc2C1=O	-6	-7	11	i	4	nt	-5	2
O=C(Nc1cccc(-c2cn3ccsc3n2)c1)c1ccccc1	1	2	9	i	5	nt	-16	-1
CCc1nc(SCC(=O)Nc2nnc(CC(C)C)s2)n[nH]1	3	1	-14	i	-15	7	-10	2
O=C(COc1ccc(Cl)cc1)Nc1nnc(-c2ccc3c(c2)CCCC3)o1	1	6	-1	i	23	-18	-7	7
N#Cc1c(NC(=O)CSc2nnnn2C2CCCCC2)sc2c1CCCC2	2	-5	1	i	12	nt	0	-1
C[C@@]12CC(=O)NC1N(C(=O)c1cccc(C(F)(F)F)c1)C(c1ccccc1O)C2 (stereo partly specified)	-12	-3	2	i	-8	105*	-13	-6
CCCC(=O)c1c[nH]c(C(=O)NCCc2ccccn2)c1	6	5	-2	i	-5	nt	-8	-2
CC1(C(=O)N/N=C/c2ccccc2)CC1(Br)Br (stereo unspecified)	-1	-1	-6	i	1	3	nt	-4

Part of the list above in order of number of heavy atoms, falling:
SMILES	MT1-MMP act inh	MT1-MMP act inh RFP	PABP polyA inh	Rce1 inh	CSC inhib	HIV Env fusion	Yeast UUG start	eIF4H inh	others
O=C(COc1ccc(Cl)cc1)Nc1nnc(-c2ccc3c(c2)CCCC3)o1	1	6	-1	i	23	-18	-7	7
O=C(Nc1cccc(-c2cn3ccsc3n2)c1)c1ccccc1	1	2	9	i	5	nt	-16	-1
CCc1nc(SCC(=O)Nc2nnc(CC(C)C)s2)n[nH]1	3	1	-14	i	-15	7	-10	2

Later entries:
SMILES	MT1-MMP act inh	MT1-MMP act inh RFP	PABP polyA inh	Rce1 inh	CSC inhib	HIV Env fusion	Yeast UUG start	eIF4H inh	others
O=C(c1ccccc1)N(C(=O)c1ccccc1)c1ncnc2c1C(c1ccccc1)c1c(ccc3ccccc13)O2 (stereo unspecified)	-9	-3	nt	nt	40	-30	-4	nt
C/C(Cn1nnc([N+](=O)[O-])n1)=N\NC(=O)c1ccccc1Cl	-11	-8	-7	i	17	nt	nt	-7
CC(=O)N1C[C@H]2CON(C)[C@H]2C[C@H]1c1cccc(-c2ccccc2)c1	0	2	nt	nt	nt	-40	-8	nt
CC(=O)Nc1ccc(OCC(O)Cn2nc(C)c(C)c2C)cc1 (stereo unspecified)	0	3	-6	i	-5	8	-25	-7
Cc1coc2cc3oc(=O)c(CCC(=O)N[C@@H](CCCNC(N)=O)C(=O)O)c(C)c3cc12	3	1	4	i	-9	-13	-8	-2
NS(=O)(=O)c1ccc(CNC(=O)c2ccncc2)cc1	-2	1	-8	i	-22	-10	-20	4
CCOC(=O)c1ccc(N2C(=O)c3n[nH]c(-c4ccco4)c3C2c2ccc([N+](=O)[O-])cc2)cc1 (stereo unspecified)	-17	-20	7	i	42	-88	-11	72	eIF4H inh retest=-1;PABP polyA inh retest=-6
CCC(CC)c1nnc(NC(=O)C2CC(=O)N(CCc3ccc(F)cc3)C2)s1 (stereo unspecified)	1	-5	5	i	-6	-2	-3	2
CC(C(c1ccc2c(c1)OCO2)c1c(N)n(C)c(=O)n(C)c1=O)[N+](=O)[O-] (stereo unspecified)	2	-1	nt	i	28	7	-4	nt
CN(C)S(=O)(=O)c1cccc(NC(=O)c2ccc(NS(=O)(=O)c3cccs3)cc2)c1	-1	-3	nt	nt	6	1	-20	nt
O=C(c1cc([N+](=O)[O-])[nH]n1)N1CCSCC1	1	4	4	i	-18	9	-8	5
COc1cccc(/C=N/Nc2ncc(C(F)(F)F)cc2Cl)c1O	-1	-1	5	i	102*	75*	nt	16
CCOc1ccc(N2CC(C(=O)NNC(=O)c3ccc(Br)cc3)CC2=O)cc1 (stereo unspecified)	-5	-4	nt	i	9	2	-35	nt
O=C(O)c1cccc2c1C(=O)N(CC1CCCO1)C2 (stereo unspecified)	1	4	1	i	-3	0	nt	-1
CCOC(=O)/C(C#N)=C\c1ccc(OC)c(OC)c1	2	5	7	i	-7	10	nt	1
CC(=O)NC(CC(=O)NCCOc1ccccc1F)c1ccccc1 (stereo unspecified)	-2	4	7	i	-3	-4	0	-5
CC(=O)NC1=NN(C(C)=O)C(c2ccco2)S1 (stereo unspecified)	3	-1	-1	i	-12	-9	15	5
CC(C)n1cc(-c2ccc(Cl)cc2)cc(C#N)c1=O	4	0	-4	i	14	nt	nt	1
O=C1NC(=O)/C(=C\c2ccccc2OCc2cccc([N+](=O)[O-])c2)N1	-4	-4	12	i	-3	25	nt	-6
CN(Cc1ccccc1)c1cc2c(c3c1ccn3C)C1CCC2O1 (stereo unspecified)	3	0	nt	nt	nt	8	4	nt

Looked up one by one from above (4):
SMILES	MT1-MMP act inh	MT1-MMP act inh RFP	PABP polyA inh	Rce1 inh	CSC inhib	HIV Env fusion	Yeast UUG start	eIF4H inh	others
CC(C(c1ccc2c(c1)OCO2)c1c(N)n(C)c(=O)n(C)c1=O)[N+](=O)[O-] (stereo unspecified)	2	-1	nt	i	28	7	-4	nt
Cc1sc(NC(=O)C2CSC3(C)CCC(=O)N23)nc1-c1ccc(F)cc1 (stereo unspecified)	-8	-4	3	i	4	-161	-12	-8
N#Cc1c(NC(=O)CSc2nnnn2C2CCCCC2)sc2c1CCCC2	2	-5	1	i	12	nt	0	-1
CC1(C(=O)N/N=C/c2ccccc2)CC1(Br)Br (stereo unspecified)	-1	-1	-6	i	1	3	nt	-4

(more compounds)
SMILES	MT1-MMP act inh	MT1-MMP act inh RFP	PABP polyA inh	Rce1 inh	CSC inhib	HIV Env fusion	Yeast UUG start	eIF4H inh	others
O=C(Nc1ccc(Nc2ccncc2)cc1)c1ccc([N+](=O)[O-])cc1	-6	-6	4	i	29	-5	-14	4
CC(C)=CCN1CCN(C/C(Cl)=C/c2ccccc2)CC1CCO (stereo unspecified)	12	4	-3	i	49	-5	6	-4
O=Cc1ccc(OCc2ccc3ccccc3c2)cc1	-1	-6	10	i	11	-14	2	5
CCOC(=O)c1c(N)sc2c(OC)c(Br)ccc12	-2	1	11	i	64	-461	41	2
CC(C)Cc1nnc(NC(=O)CN2C(=O)NC3(CC(C)CC(C)(C)C3)C2=O)s1 (stereo unspecified)	3	1	nt	i	-10	-191	nt	nt
NS(=O)(=O)c1ccc(CNC(=S)Nc2ccc(Cl)c(Cl)c2)cc1	-1	-13	-6	i	-1	-5	-22	-10
O=C(NNC(=O)c1cc2c(s1)CCCC2)c1ccccc1	1	-2	2	i	-2	-21	nt	-4
CCC(C)NC(=O)CSc1nc2c(sc(=S)n2Cc2ccco2)c(=O)n1-c1ccccc1 (stereo unspecified)	-3	-6	-4	i	-1	-94	nt	-14
COCCn1c(C)cc(C(=O)CN2CCCCC2)c1C	-4	0	1	i	5	11	nt	17
N#Cc1ccc(S(=O)(=O)Nc2ccccc2N2CCOCC2)cc1	-1	0	nt	nt	-16	nt	-13	nt
CCOC(=O)C1(C)CCCN(C(=O)c2ccc3ccccc3c2)C1 (stereo unspecified)	-1	2	nt	nt	nt	-8	-10	nt
CC(C)(C)c1ccc(C(=O)c2c[nH]c(C(=O)NCc3cccs3)c2)cc1	2	0	2	i	nt	nt	-9	-9
CCOC(=O)C1=C(CNCc2ccc(C)cc2)NC(=O)NC1c1cc(C)ccc1C (stereo unspecified)	-6	-7	-4	i	10	nt	-4	2
Cc1nnc(C)n1/N=C/c1cccs1	9	-1	-6	i	nt	nt	-7	1
CCOc1ccc(C(=O)CCN2CCCCCC2)cc1	0	7	8	i	2	nt	nt	6
Cc1occc1C(=O)NNC(=O)c1ccc(S(=O)(=O)N(C)C)cc1	1	3	nt	nt	-14	-3	-18	nt
C=CCN(c1ccc(C(=O)Nc2ccc(C)cc2)cc1)S(C)(=O)=O	4	-8	-6	i	-6	-5	nt	0
CC1(C)CC(NC(=O)CC(c2ccccc2)c2ccccc2)CC(C)(C)N1	5	0	-2	i	-8	-46	-6	-5
CCN(CC(=O)Nc1c(F)cccc1F)C(=O)CCCN1C(=O)c2cccc3cccc(c23)C1=O	1	-1	nt	nt	nt	-7	-12	nt
Cc1ccc2nc(SCc3ccc([N+](=O)[O-])cc3)nc(C)c2c1	0	2	4	i	15	-70	-13	11
CCc1cc(C(=O)N2CCCC(N3CCN(c4cccc(C(F)(F)F)c4)CC3)C2)n(C)n1 (stereo unspecified)	-3	-23	-12	i	10	14	1	-6
Cc1ccc(N(C)S(=O)(=O)c2c(C)[nH]c(C)c2C(=O)N2CCCC2)cc1	3	3	-10	i	-7	-2	-10	4
COC(=O)c1cc(NC(=O)CC2NC3CCCCC3NC2=O)cc(C(=O)OC)c1 (stereo unspecified)	0	3	2	i	9	-40	4	-8
CCOC(=O)c1sc(N2C(=O)C(O)=C(C(=O)c3ccc(C)o3)C2c2ccc(OC)c(OC)c2)nc1C (stereo unspecified)	-4	0	-1	i	-21	2	0	-9
COc1ccc(S(=O)(=O)N2CCC(C(=O)NCCc3c[nH]c4ccccc34)CC2)cc1	0	-1	6	i	22	5	-7	2
COCCCN1C(=O)C(=O)/C(=C(/O)c2ccc(S(=O)(=O)N3CCOCC3)cc2)C1c1ccc(Cl)cc1 (stereo unspecified)	-1	3	15	i	5	1	-12	-6

Entries above that have a cyano group, in the order listed:
SMILES	MT1-MMP act inh	MT1-MMP act inh RFP	PABP polyA inh	Rce1 inh	CSC inhib	HIV Env fusion	Yeast UUG start	eIF4H inh	others
N#Cc1c(NC(=O)CSc2nnnn2C2CCCCC2)sc2c1CCCC2	2	-5	1	i	12	nt	0	-1
CCOC(=O)/C(C#N)=C\c1ccc(OC)c(OC)c1	2	5	7	i	-7	10	nt	1
CC(C)n1cc(-c2ccc(Cl)cc2)cc(C#N)c1=O	4	0	-4	i	14	nt	nt	1
N#Cc1ccc(S(=O)(=O)Nc2ccccc2N2CCOCC2)cc1	-1	0	nt	nt	-16	nt	-13	nt
